D2 agonist: agonists of human D2 dopamine receptor (beta-arrestin); P14416; DiscoveRx PathHunter D2 beta-arrestin, luminescence, 90 min; 100% = 57 uM dopamine signal; activation, % (no concentration beside the values); actives 0.084% (n = 360,000); AID 624465; in the data active = activation above about 40%; inconclusive = about 15% to 40%; inactive = below about 15%; also: compound concentration not given in the record; the text of the record calls up to 30% inactive
Target sequence (P14416 whole entry, looked up): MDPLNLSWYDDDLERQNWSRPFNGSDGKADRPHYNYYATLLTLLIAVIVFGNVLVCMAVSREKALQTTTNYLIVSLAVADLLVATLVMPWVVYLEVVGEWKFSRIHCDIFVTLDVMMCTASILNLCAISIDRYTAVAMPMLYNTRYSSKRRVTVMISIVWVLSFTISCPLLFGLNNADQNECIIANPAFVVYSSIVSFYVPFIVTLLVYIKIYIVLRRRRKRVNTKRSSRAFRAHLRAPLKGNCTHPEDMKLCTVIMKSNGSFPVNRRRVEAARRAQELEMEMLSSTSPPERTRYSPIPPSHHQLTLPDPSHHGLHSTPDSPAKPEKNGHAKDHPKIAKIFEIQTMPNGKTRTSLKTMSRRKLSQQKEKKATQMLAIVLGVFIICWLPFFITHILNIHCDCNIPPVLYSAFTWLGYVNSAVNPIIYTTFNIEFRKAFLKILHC
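DiscoveRx PathHunter D2 beta-arrestin cells (2,100/well) attached overnight, then compound-stimulated 90 min at 37 C in HBSS/10 mM HEPES/0.1% Tween-20 buffer; beta-galactosidase complementation read by luminescence after 1 h at ambient temperature. Dopamine 57 uM final (EC100) as control.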
gsp agonist: gsp mutant agonism; gsp mutant cells, cAMP HTRF, 30 min; control for the full effect not named in the record; Potency, µM (doses to about 76.9 µM), for the others: at the highest dose activation (cAMP increase), usual class: activators; actives 0.13% (n = 340,000); active = well fitted activation curve with a large enough effect; inconclusive = small, poorly fitted or top-dose-only effect, or another doubt; inactive = no such curve, though single readings can be large or run the other way; cell line not stated here;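 also: phosphodiesterase inhibitor Ro 20-1724 added with compounds to block cAMP breakdown; potency is read from the fitted curve at half-maximal effect; nearly all actives have a fitted effect of over 60% in size; about a fifth of the inactives were tested at one dose only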
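Cells stably selected in G418 were plated at 2000/well, grown 16-24 hr, then given compounds in DMSO with the PDE inhibitor […] (300 uM solution added) for 30 min at 37C; cAMP was read by HTRF.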
Sfp PPTase inh: blocks B. subtilis Sfp PPTase activity | Biochemical Sfp PPTase activity, qHTS | Potency, µM, for the others: max response, negative = inhibition, most hits filed as inhibitors | actives 3.5% (n = 310,000) | AID 1490; active = well fitted inhibition curve with a large enough effect; inconclusive = small, poorly fitted or top-dose-only effect, or another doubt; inactive = no such curve, though single readings can be large or run the other way;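 also: the enzyme is Sfp with the accession as filed and its product quenches rhodamine fluorescence; potency is read from the fitted curve at half-maximal effect; 0% = enzyme reaction without inhibitor and -100% = no enzyme wells; top concentration of the series not given in the record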
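Buffer: 50 mM Hepes-Na pH 7.6, 10 mM MgCl2, 0.01% Nonidet P-40, 0.01% BSA. Enzyme 15 nM, pre-exposed to compound 15 min; substrates then added and fluorescence change tracked over 30 min.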
Menin MLL FP FL: displaces fluorescein MLL peptide from human menin; Fluorescence polarization, fluorescein-MLL peptide displacement from menin; 290,000 tested, under 10 active; FP activity change, % at 61.4 µM; inconclusive = falling polarisation curve, or a change in total fluorescence; inactive = total fluorescence flat and polarisation flat or rising; no compound was filed as active; the % refers to the polarisation; negative = inhibition;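 also: % of control where 0% means no effect; inhibitors lower the polarisation; unlabelled MLL peptide was the positive control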
gsp antagonist: antagonists of gsp mutant (McCune-Albright syndrome). gsp-mutant cells, cAMP HTRF, 30 min; control for the full effect not named in the record. Potency, µM (series often up to 76.9 µM), for the others: at the highest dose activity change, negative = inhibition, actives largely listed as inhibitors. actives 0.4% (n = 340,000). AID 624288; active = falling curve of any shape with a large fitted effect; inconclusive = falling curve, mostly with a smaller effect; inactive = flat or rising curve; cell line not stated here;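 also: intracellular cAMP measured with PDE inhibitor Ro 20-1724 present during compound exposure; potency is read from the fitted curve at half-maximal effect; % is scaled to controls: 0 for no effect and ±100 for the full control effect; nearly all actives have a fitted effect of over 65% in size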
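Measurement of cellular cAMP by homogeneous time-resolved fluorescence following a 30 min compound exposure at 37C. The PDE inhibitor […] was present throughout; the assay buffer was DPBS with 0.05% BSA and 0.005% Tween 20.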
ClpP mod: qHTS Assay for Activators of ClpP; actives 1.9% (n = 340,000); Potency, µM (doses to about 57.5 µM), for inactives: at the highest dose activity change, negative = active; AID 651965, 2013; ATP-dependent Clp protease proteolytic subunit (Bacillus subtilis (strain 168)), P80244; purified B. subtilis ClpP, FRET peptide cleavage, 20 min; active = well fitted falling curve with a large enough effect; inconclusive = small, poorly fitted or top-dose-only effect; inactive = no such curve, though single readings can be large or run the other way; also: potency is read from the fitted curve at half-maximal effect; the source files actives as falling curves though it sought activators and does not explain the sign; nearly all actives have a fitted effect of over 65% in size; many hits overshoot -100%
Target sequence (P80244 whole entry, looked up): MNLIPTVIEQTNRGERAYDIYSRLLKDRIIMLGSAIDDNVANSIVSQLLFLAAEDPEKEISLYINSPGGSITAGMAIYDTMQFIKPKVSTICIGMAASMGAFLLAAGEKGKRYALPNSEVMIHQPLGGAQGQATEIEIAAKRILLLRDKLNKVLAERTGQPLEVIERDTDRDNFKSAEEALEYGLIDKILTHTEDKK
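Purified B. subtilis ClpP, 10 microg/mL final in Tris/HCl pH8 with KCl, BSA, glycerol and Tween-20, cleaved an Abz/nitrotyrosine-quenched decapeptide. Fluorescence (ex 320, em 430) was read at 0 and 20 min at room temperature. Delta was normalized to 5.8 microM ADEP and DMSO/no-enzyme controls.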
PINK1 expr mod: changes PINK1 expression; actives 0.2% (n = 410,000); AID 624263; Potency, µM (highest dose often 76.6 µM), for inactives: at the highest dose activation (PINK1 increase), usual class: activators; PINK1 immunofluorescence, high-content cytometry, 24 h; active = well fitted activation curve with a large enough effect; inconclusive = small, poorly fitted or top-dose-only effect; inactive = flat fitted curve, though single readings scatter; cell line not stated here;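 also: potency is read from the fitted curve at half-maximal effect; % of control where 0% means no effect; nearly all actives have a fitted effect of over 65% in size; a mitochondrial uncoupler was the plate control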
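Cells are seeded, rested 12 hours, then given compound at five concentrations or DMSO for 24 hours. After fixation, blocking and antibody staining, PINK1 amount and mitochondrial localization are scored; CCCP serves as control.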
The depositor's hits bear a star; ? = inconclusive; . = not tested or not shown; & = joins results of further samples; [ ] = another dose, or the depositor's remark.

SMILES	D2 agonist	gsp agonist	Sfp PPTase inh	Menin MLL FP FL	gsp antagonist	ClpP mod	PINK1 expr mod
CC1CCCCN1S(=O)(=O)c1ccc(C(=O)N(CCCN(C)C)c2nc3cc4c(cc3s2)OCO4)cc1 (stereo unspecified)	-1.0	18%[15.4 µM]	4%	.	-6%	-0.5%	0.3%
COC(=O)C1=CN(C2CC2)C=C(C(=O)OC)C1c1ccc(C(=O)OC)cc1	-3.0	12%	-15%	0.4	-3%	32µM*	2.8%[38.3 µM]
CCOC(=O)CNC(=O)COc1ccc(Cl)cc1Br	3.0	42%	11%	-1.8	-9%	0.5%	-4.8%[38.3 µM]
O=C1CC(SCCO)C(=O)N1c1ccc(Oc2ccccc2)cc1 (stereo unspecified)	0.3	-27%	-9%	2.0	6%	-7.9%	.
CN(C)C(=O)CNC(=O)CN1C(=O)NC2(CCCc3sccc32)C1=O (stereo unspecified)	-1.1	26%	9%	-0.2	8%	.	-0.7%
COc1ncccc1-c1nnn(-c2ccc(Cl)c(Cl)c2)n1	-3.1	?	-23%	0.7	3%	?	0.5%
COc1ccc(-n2c(C)cc(/C=C3\C(=N)N4N=C(CC(=O)N5CCOCC5)SC4=NC3=O)c2C)cc1	0.3	1%	-6%	.	-28%	-6.4%	3.8%
O=C(O)C1(c2ccccc2)CCN(S(=O)(=O)c2ccc(F)c(F)c2)CC1	1.7	-15%	3%	-3.9	-7%	.	2.0%
COc1cccc(C2=NOC(C(=O)NC3CCCCC3)C2)c1 (stereo unspecified)	-3.2	-34%[inhibitor]	-4%	3.7	3%	-1.9%	-1.9%[38.3 µM]
CCNS(=O)(=O)c1ccc(NC(=O)Nc2ccc3c(c2)OCO3)cc1	-2.1	-4%	-9%	-0.8	9%	-1.3%	-0.6%
COc1ccc(N2CCN(C(CNC(=O)c3ccc4c(c3)OCO4)c3cccnc3)CC2)cc1 (stereo unspecified)	-4.9	-31%[inhibitor]	2%	5.4	-1%	-1.1%	-0.5%
Cc1cccc(N2C(=O)C3CC3C2=O)c1 (stereo unspecified)	-4.2	2%[15.4 µM]	15%	-2.0	-6%	.	1.0%
Cn1c(=O)c2c(ncn2CC(=O)OCC(=O)Nc2cccc(Cl)c2)n(C)c1=O	-1.6	4%[15.4 µM]	9%	0.2	.	.	0.0%
N/C(CS(=O)(=O)c1ccccn1)=N\OC(=O)c1ccc(Cl)cc1	0.4	-6%[15.4 µM]	16%	1.9	2%	-1.5%	-1.3%
CN(Cc1nccn1C)C(=O)CCc1nnc(CCC2CCCCC2)o1	-1.5	-13%[15.4 µM]	25%	1.1	10%	.	-0.4%
CC(C)OC(=O)N(C)C[C@@H]1OCc2cnnn2CCCC(=O)N([C@@H](C)CO)C[C@H]1C	-7.3	22%	.	.	.	-0.2%	1.3%
C/C(=N\NC(=O)Cc1ccccc1Cl)c1cccnc1	-4.1	6%	-15%	.	-1%	-0.8%	0.0%
CN1CCCC1(C)C(=O)NCc1ccc(F)cc1Cl (stereo unspecified)	-5.0	.	.	.	.	0.4%	1.7%
NC(=O)CCCC1=NS(=O)(=O)c2ccccc2N1	-1.4	28%	16%	-0.8	22%	0.6%	1.3%
COc1ccc(-c2nc3ccccc3c(=O)n2NC(=O)c2cccnc2Cl)cc1OC	0.8	-4%[15.4 µM]	32%[activator]	-1.3	-3%	.	1.2%
CCn1c(=O)c(C(=O)NCCNCCO)c(O)c2ccccc21	-15	-25%	5%	-1.8	10%	-13%	-1.7%
Cc1ccc(N2C(=O)CN=C2Nc2nc(C)cc(C)n2)cc1	-1.7	16%	0%	-1.9	10%	.	-0.6%
Clc1ccc(OCc2cc(-c3ccccc3)no2)cc1Cl	-1.7	16%	0%	0.3	-4%	-3.9%	.
Cn1c(N2CCN(C(c3ccccc3)c3ccccc3)CC2)nc2c1c(=O)[nH]c(=O)n2C	3.3	-32%	-10%	2.2	-19%	-2.1%	-1.6%
CN1CCC(N(C)C(=O)CCc2nc3ccccc3n2-c2ccccc2)CC1	-1.1	-10%[15.4 µM]	23%	0.9	12%	.	0.8%
Cn1c(=O)oc2cc(S(=O)(=O)Nc3ccccc3O)ccc21	-4.0	-77%[inhibitor]	20%	5.4	-6%	-2.3%&0.6%	4.0%&1.7%
Cc1ccccc1NS(=O)(=O)c1ccc2c(c1)NC(=O)CO2	-0.5	9%	18%	1.3	-7%	.	2.3%
CCc1nnc2n1N=C(c1ccc(Cl)cc1)CS2	-5.7	-4%	2%	-4.6	-10%	-3.0%	-0.3%
COc1ccc(CCN2CC(C(=O)NCCc3cccnc3)CCC2=O)cc1 (stereo unspecified)	-2.7	20%[15.4 µM]	0%	.	2%	-0.6%	-0.4%
CC(Oc1ccccc1)C(=O)Nc1ccc(F)c(S(=O)(=O)N2CCOCC2)c1 (stereo unspecified)	-0.6	-31%[inhibitor]	.	.	-1%	-2.6%	-1.6%
CCSc1nc2c(c(-c3ccc(C)o3)c1C#N)CCCC2	-7.5	14%	?	1.4	-23%	?	-0.2%
O=C(NCCC(=O)N1CCN(C(=O)c2ccco2)CC1)c1ccccc1Cl	-1.1	13%[15.4 µM]	.	.	-2%	1.1%	-0.6%
O=S(=O)(c1ccccc1)c1ncc(C(F)(F)F)cc1O	4.7	4%	18%	0.2	1%	.	1.7%
Cc1cc(C)n2nc(SCC(=O)Nc3ccc(F)c(F)c3F)nc2n1	-0.3	4%	.	.	3%	-0.5%	2.9%
CC(C)=CCN1CCN(Cc2cnc(N3CCOCC3)s2)CC1CCO (stereo unspecified)	-3.2	-16%[15.4 µM]	?	-0.7	15%	.	-1.1%
CCN(CC(=O)Nc1ccc(NC(C)=O)cc1)C(=O)c1ccccc1SCc1c(C)noc1C	-0.1	13%[15.4 µM]	.	.	-13%	-0.7%	1.2%
Cc1cc(NC(=O)CSc2ncccn2)no1	2.1	-51%[inhibitor]	6%	1.6	7%	-3.2%	7.0%[38.3 µM]
Cc1ccnc2nc(C(=O)NC3CCCc4ccccc43)nn12 (stereo unspecified)	0.3	19%[15.4 µM]	5%	3.0	-6%	?	0.0%
CCOC(=O)C1CCN(C(=O)COc2ccc(Cl)cc2C)CC1	-5.0	6%	4%	1.8	0%	1.0%	5.1%
CC1CCN(CCCn2c(=S)[nH]c3ccccc3c2=O)CC1	-2.6	22%	-3%	3.2	8%	1.4%	0.5%
CC1CCN(C(=O)c2ccc(S(=O)(=O)NCc3ccco3)cc2)CC1	2.5	-7%[15.4 µM]	-1%	-6.5	14%	.	-0.4%
CCOC(=O)c1ccc(NC(=O)CN2C(=O)CSC2=O)cc1	-1.0	27%	5%	3.6	8%	1.2%	-13%[38.3 µM]
O=C(Cn1ccc(NC(=O)OCc2ccccc2)nc1=O)NCc1ccc2c(c1)OCO2	-5.3	?	.	.	9%	-3.8%	1.1%
COc1ccc(N2CCN(C(=O)COc3ccc4ccccc4c3)CC2)cc1	-0.6	0%	11%	-0.2	-2%	-18%	13%
COc1cc(/C=C/C(=O)O)ccc1OCc1ccc([N+](=O)[O-])cc1	-0.4	-14%	14%	1.7	-9%	.	-0.7%
Cc1nn(CC(=O)Nc2cccnc2)c(C)c1[N+](=O)[O-]	-1.6	11%	-8%	-0.9	7%	-1.1%	1.9%
COc1ccc(NC(=O)CN(C)C(=O)CN2C(=O)NC3(CCCCC3)C2=O)cc1	-3.1	-13%	.	.	11%	-1.8%	-1.1%
Cc1cc(NC(=O)c2ccc(F)cc2)n(-c2ccccc2)n1	-2.5	-32%[inhibitor]	7%	0.0	-10%	-2.0%	4.7%
Cc1nc2ccccc2cc1O	-5.3	-22%	-4%	2.5	19%	3.5µM*	0.2%
COC(=O)[C@H](CC(C)C)NC(=O)Nc1ccc(S(N)(=O)=O)cc1	-5.6	-19%	79µM*	-1.4	14%	2.1%	-0.8%
CC(=O)OCC(=O)[C@H]1CC[C@H]2[C@@H]3CC=C4C[C@@H](O)CC[C@]4(C)[C@H]3CC[C@]12C	-4.2	.	8%	-0.7	5%	1.1%	1.9%
O=C1CCC(C(=O)Nc2ccc([N+](=O)[O-])cc2)N1 (stereo unspecified)	-1.2	-32%[inhibitor]	.	.	1%	-4.6%	1.4%
Cc1ccc(C(=O)COC(=O)c2cccs2)cc1	-4.6	8%	-5%	-1.9	3%	-0.6%	-1.3%
O=C(Nc1cccc(O)c1)c1ccc(C(F)(F)F)cc1	-23	10%[15.4 µM]	-1%	-3.6	-2%	.	0.3%
CC12CCC3c4ccccc4CCC3(CO1)C2 (stereo unspecified)	-4.4	-2%	.	.	.	-1.2%	0.0%
Cc1ccc(C(=O)OCC(=O)N2C(C)CCCC2C)cc1S(=O)(=O)N1CCCCC1 (stereo unspecified)	0.0	28%[15.4 µM]	.	.	-22%	.	-3.6%
CCOC(=O)C1=CN(C)CCC1=O	-0.4	.	.	.	8%	2.4%	-0.4%
Cc1cc(C)n(C(=O)CNC(=O)CCc2ccccc2)n1	0.1	-1%	13%	2.2	12%	-0.5%	-1.5%
Cc1cc(C(=O)NCCN2C(=O)S/C(=C\c3cccs3)C2=O)ccc1[N+](=O)[O-]	-0.8	5%	35µM*	6.5	25µM*	-2.2%	3.3%
CNc1ccc(-c2cccc(C(C)=O)c2)cn1	-1.9	.	.	.	.	-9.7%	0.2%

Continuation:
SMILES	D2 agonist	gsp agonist	Sfp PPTase inh	Menin MLL FP FL	gsp antagonist	ClpP mod	PINK1 expr mod
O=C(c1cc(C(F)(F)F)cc(C(F)(F)F)c1)N1CCC2(CCN(Cc3nccs3)CC2)CC1	.	.	7%	-0.4	.	.	0.7%
CCOc1ccccc1-n1nnnc1SCC(=O)N1CCCC1=O	-4.4	?	.	.	5%	0.7%	0.2%
COc1ccc(Nc2nc(N)nc(CSC(=S)N3CCC(C)CC3)n2)cc1	1.4	17%	12%	-0.9	3%	-2.1%	1.1%
CCN(CC)CCCNc1cc(C)nc2cc(-c3cccs3)nn12	-2.5	-8%	21%	3.4	9%	.	7.4%
CCc1nc2ccccc2c(NC(=O)CN2CCC(C)CC2)c1C	-0.7	1%	-28%	-0.1	-4%	-3.4%	-1.9%
CCc1c(C(=O)Nc2ccc(S(=O)(=O)N3CCOCC3)cc2)csc1C	-1.2	27%	-5%	2.4	5%	-1.1%	?
O=C(Nc1cccc(S(=O)(=O)N2CCCCC2)c1)C1CCCN1S(=O)(=O)c1ccccc1F (stereo unspecified)	2.7	-3%	.	.	-9%	-17%	0.4%

Assay outcomes (PubChem)
